Screening results (PubChem)
rRNA inh HTS: reduced GFP signal of wild-type E. coli, primary screen, bacterial rRNA inhibitor project, GFP/RFP fluorescence, OD600, single point; AID 720706, 2013; E. coli WT GFP vs humanized-ribosome RFP mutants, 24 h; stronger effect = lower value; DMSO median 0, no signal -100; GFP signal change (wild-type ribosome), % (no concentration beside the values); 350,000 tested, 1.6% active;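 active means significant combined selectivity score with lowered wild-type GFP, culture density cut under 30%, mutant RFP and density less affected; inactive means any of these conditions unmet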; further: one replicate is shown; some compounds called inactive have numbers as strong as hits
rRNA inh HTS OD600: recorded beside rRNA inh HTS, whose call it bears; OD600 change, %; measured here: OD600 growth;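 optical density of the mix in the first replicate; 0 = DMSO median and -100 = no signal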
rRNA inh HTS RFP: further read-out of rRNA inh HTS, marked with its call; RFP signal change, %; measured here: RFP humanized mutant strains;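 first replicate; 0 = DMSO median and -100 = no signal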
* = called active by the depositor. Not all compounds are listed. The share of hits here may be higher or lower than overall.

SMILES	rRNA inh HTS	rRNA inh HTS OD600	rRNA inh HTS RFP
C[C@@H]1CN([C@@H](C)CO)C(=O)c2cccc(NC(=O)c3nc4ccccc4s3)c2O[C@@H]1CN(C)Cc1ccc(C(=O)Nc2ccccc2N)cc1	-8.9	-16.3	2.0
C[C@H](CO)N1C[C@H](C)[C@H](CN(C)S(=O)(=O)c2ccc(Cl)cc2)Oc2ccc(NC(=O)CCCCCC(=O)Nc3ccccc3N)cc2CC1=O	0.7	-3.9	0.7
C[C@H]1CN([C@@H](C)CO)C(=O)c2cc(C#Cc3ccncc3)cnc2O[C@@H]1CN(C)Cc1ccncc1	3.1	3.8	-1.2
C[C@H](CO)N1C[C@H](C)[C@H](CN(C)C(=O)C2CCCCC2)OCCCC[C@H](C)Oc2ccc(NC(=O)c3ccncc3)cc2C1=O	-4.9	-9.2	1.6
C[C@@H]1CN([C@@H](C)CO)C(=O)CCCn2cc(nn2)CO[C@@H]1CN(C)Cc1cccc(O)c1	0.0	-9.9	-0.6
COc1ccc(S(=O)(=O)Nc2ccc3c(c2)C(=O)N([C@H](C)CO)C[C@@H](C)[C@H](CN(C)C(=O)Nc2ccc4c(c2)OCO4)O3)cc1	2.2	0.6	-0.8
CC(C)NC(=O)Nc1ccc2c(c1)C(=O)N([C@H](C)CO)C[C@H](C)[C@H](CN(C)S(=O)(=O)c1cccs1)O2	0.7	-5.8	1.0
C[C@H]1CN([C@@H](C)CO)S(=O)(=O)c2ccc(-c3ccncc3)cc2O[C@@H]1CN(C)Cc1ccncc1	-5.6	-8.4	-0.9
CNC[C@@H]1Oc2ccccc2C(=O)N(C)C[C@@H]1C	0.1	1.3	-2.0
O=C1C[C@@H](c2ccccc2)C(=O)N[C@H](c2ccccc2)C/C=C\C[C@H](c2ccccc2)N1	-5.8	-21.6	-0.5

An excerpt from the list above, as a working copy:
SMILES	rRNA inh HTS	rRNA inh HTS OD600	rRNA inh HTS RFP
C[C@@H]1CN([C@@H](C)CO)C(=O)c2cccc(NC(=O)c3nc4ccccc4s3)c2O[C@@H]1CN(C)Cc1ccc(C(=O)Nc2ccccc2N)cc1	-8.9	-16.3	2.0
C[C@H](CO)N1C[C@H](C)[C@H](CN(C)S(=O)(=O)c2ccc(Cl)cc2)Oc2ccc(NC(=O)CCCCCC(=O)Nc3ccccc3N)cc2CC1=O	0.7	-3.9	0.7
C[C@H]1CN([C@@H](C)CO)C(=O)c2cc(C#Cc3ccncc3)cnc2O[C@@H]1CN(C)Cc1ccncc1	3.1	3.8	-1.2

Next section
SMILES	rRNA inh HTS	rRNA inh HTS OD600	rRNA inh HTS RFP
CN(C)C(=O)[C@@H]1[C@@H](CO)[C@@H]2Cn3c(cccc3=O)[C@@H]2N1C(=O)NC1CCCC1	3.5	1.4	-1.9
CC(C)C#Cc1ccc2c(c1)O[C@@H](CN(C)C(=O)C1CCCCC1)[C@@H](C)CN([C@H](C)CO)S2(=O)=O	3.5	-9.0	4.4
C[C@H](CO)N1C[C@H](C)[C@@H](CN(C)S(=O)(=O)c2cccc(C#N)c2)OCc2ccccc2-c2ccccc2C1=O	-0.5	-0.5	0.3
COCC(=O)N(C)C[C@@H]1Oc2cc(C#CC3CCCC3)ccc2S(=O)(=O)N([C@@H](C)CO)C[C@@H]1C	-2.1	3.6	2.5
CCC(=O)N1CC2(C1)CN(Cc1ccc(OC)cc1)[C@@H](CO)c1[nH]c3cc(OC)ccc3c12	0.2	1.8	1.1
C[C@@H]1CN([C@H](C)CO)C(=O)CCCn2cc(nn2)CO[C@@H]1CN(C)Cc1cccnc1	1.2	3.2	0.1
C[C@H](CO)N1C[C@H](C)[C@@H](CN(C)C(=O)Nc2ccc(C(F)(F)F)cc2)Oc2c(NC(=O)Nc3cccc4ccccc34)cccc2C1=O	-4.9	-3.1	1.9
COc1ccccc1NC(=O)N1CC(=O)N2[C@H](CO)[C@@H](c3ccc(C#CCC(C)C)cc3)[C@@H]2C1	-4.9	-14.9	23.7
CNC[C@H]1Oc2ccc(NC(=O)Nc3ccc4c(c3)OCO4)cc2CC(=O)N([C@@H](C)CO)C[C@H]1C	1.5	-2.2	-4.2
CO[C@@H]1CN(C)C(=O)c2ccc(NC(C)=O)cc2OC[C@H](C)N(C(=O)CN(C)C)C[C@@H]1C	3.2	1.6	-2.6
CC(=O)N(C)C[C@@H]1Oc2c(NC(=O)NC(C)C)cccc2C(=O)N(C)C[C@H]1C	-0.4	2.1	-2.5
Cc1ccc(NC(=O)C[C@H]2CC[C@H]3[C@@H](COc4ccc(NC(=O)C5CCCCC5)cc4C(=O)N3C)O2)cc1	-0.5	-15.3	12.1
COCC#Cc1ccc([C@@H]2[C@@H](CO)N3CCCCN(S(=O)(=O)c4cccc(OC)c4)C[C@H]23)cc1	-0.4	-5.2	0.1
CCCN(C)C[C@H]1Oc2cc(C#CC3CCCCC3)ccc2S(=O)(=O)N([C@H](C)CO)C[C@@H]1C	3.0	-5.2	6.4
COc1ccc(C[C@H]2CCn3nncc3COCCCNC2=O)cc1	-0.3	-1.8	-0.7
Cc1noc(C)c1S(=O)(=O)Nc1cccc2c1O[C@@H](CN(C)Cc1ccc(-c3ccccc3)cc1)[C@@H](C)CN([C@H](C)CO)C2=O	-3.5	-10.9	1.4
COc1ccc(S(=O)(=O)N(C)C[C@@H]2Oc3c(NC(=O)Nc4ccccc4)cccc3C(=O)N([C@H](C)CO)C[C@@H]2C)cc1	-0.1	-3.2	3.6
O=C(Nc1ccccc1F)N1CC(=O)N2[C@H](CO)[C@@H](c3ccc(-c4ccc(F)cc4)cc3)[C@@H]2C1	-26.5	-42.4	18.4
CN1c2ccc(C3=CCCCC3)cc2[C@@H]2[C@@H](CCN2C(=O)c2ccc3c(c2)OCO3)[C@@H]1CO	-4.7	-4.7	-1.2
COc1ccc2c3c([nH]c2c1)[C@@H](CO)N(C)CC31CN(C(=O)Nc2c(C)noc2C)C1	0.7	11.4	-0.3
COc1ccc(S(=O)(=O)N(C)C[C@H]2Oc3ccc(NC(=O)NC(C)C)cc3C(=O)N([C@H](C)CO)C[C@H]2C)cc1	-1.9	-0.3	0.4
C[C@H](CO)N1C[C@H](C)[C@H](CN(C)C)OCc2cn(nn2)CCCC1=O	-2.5	-5.4	-1.0
CC(=O)N1[C@H](CNC(=O)CN2CCOCC2)[C@@H](c2ccccc2)[C@@H]1CO	3.4	10.5	-1.3
Cc1ccc(S(=O)(=O)Nc2ccc3c(c2)CC(=O)N([C@H](C)CO)C[C@H](C)[C@H](CN(C)Cc2ccc(C(=O)Nc4ccccc4N)cc2)O3)cc1	2.2	-7.7	3.2
C[C@@H]1CN([C@@H](C)CO)C(=O)c2ccccc2-c2ccccc2CO[C@@H]1CN(C)Cc1ccccc1	-9.0	-28.9	17.2
CCCC(=O)Nc1ccc2c(c1)C(=O)N(C)C[C@@H](OC)[C@@H](C)CN(CC1CCOCC1)[C@H](C)CO2	0.3	10.1	0.3
O=S(=O)(c1ccccc1F)N1CC[C@@H]2[C@@H](CO)Nc3ccc(-c4ccc(F)cc4)cc3[C@@H]21	-26.1	-55.9	17.8
C[C@H](CO)N1C[C@H](C)[C@@H](CN(C)C(=O)Nc2ccc(N3CCCCC3)cc2)OCc2cn(nn2)CCCC1=O	-1.0	4.8	3.8
CC(C)(C)S(=O)N1Cc2cc(C(=O)O)nc(-c3cccc(C#CCC4CCCC4)c3)c2[C@@H]1CCO (stereo partly specified)	-4.2	-4.8	1.2
C[C@H](CO)N1C[C@H](C)[C@H](CN(C)Cc2ccc(C(=O)O)cc2)Oc2c(NC(=O)Nc3ccc(C(F)(F)F)cc3)cccc2C1=O	-5.2	-7.7	1.1
Fc1ccc(CN2[C@@H]3CN(CC(F)(F)F)C[C@H]2C3c2ccc(Br)cc2)cc1 (stereo partly specified)	-54.2	-81.1	-9.3
COCC#Cc1cnc2c(c1)C(=O)N([C@H](C)CO)C[C@H](C)[C@H](CN(C)Cc1ccc(-c3ccccc3)cc1)O2	-2.3	0.9	3.8
C[C@H](CO)N1C[C@H](C)[C@H](CN(C)C(=O)Cc2ccccc2)OCc2cn(nn2)CCCC1=O	1.1	-1.6	-0.3
CNC(=O)C[C@H]1CC[C@@H]2[C@@H](COc3ccc(NC(=O)Nc4c(C)noc4C)cc3C(=O)N2C)O1	1.3	5.1	-1.4
Cc1ccccc1S(=O)(=O)Nc1ccc2c(c1)C(=O)N(C)[C@@H]1CC[C@H](CC(=O)O)O[C@@H]1CO2	-2.5	-0.3	2.1
CO[C@H]1CC[C@@H]2CCOc3ccc(C#N)cc3C(=O)N(C)C[C@@H](c3ccccc3)CC(=O)N(C)C[C@H]1O2	0.1	-0.7	1.6
CN(C)CC(=O)Nc1ccc2c(c1)C(=O)N(C)[C@H]1CC[C@H](CC(=O)Nc3cccc(Cl)c3)O[C@@H]1CO2	-2.0	-2.3	-0.8
Cc1noc(C)c1S(=O)(=O)N(C)C[C@H]1Oc2c(NC(=O)C3CCOCC3)cccc2C(=O)N([C@@H](C)CO)C[C@H]1C	-1.9	4.1	1.3
O=C(NC[C@@H]1[C@H](c2ccccc2)[C@H](CO)N1C(=O)C1CCC1)NC1CCCC1	-2.8	-3.0	-1.3
COc1ccc(S(=O)(=O)N2CC[C@@H]3[C@@H](CO)Nc4ccc(Br)cc4[C@@H]32)cc1	-22.1	-21.3	-3.0

Shown field by field: part of the list above.
> CN1c2ccc(C3=CCCCC3)cc2[C@@H]2[C@@H](CCN2C(=O)c2ccc3c(c2)OCO3)[C@@H]1CO
- rRNA inh HTS: -4.7
- rRNA inh HTS OD600: -4.7
- rRNA inh HTS RFP: -1.2

> COc1ccc2c3c([nH]c2c1)[C@@H](CO)N(C)CC31CN(C(=O)Nc2c(C)noc2C)C1
- rRNA inh HTS: 0.7
- rRNA inh HTS OD600: 11.4
- rRNA inh HTS RFP: -0.3

(more compounds)
SMILES	rRNA inh HTS	rRNA inh HTS OD600	rRNA inh HTS RFP
Cc1ccccc1-c1ccc2c(c1)O[C@H](CN(C)C(=O)Nc1ccc(F)cc1)[C@@H](C)CN([C@@H](C)CO)S2(=O)=O	-1.7	-12.4	3.1
COCC#Cc1cnc2c(c1)C(=O)N([C@@H](C)CO)C[C@@H](C)[C@H](CN(C)Cc1ccc(-c3ccccc3)cc1)O2	-3.1	-3.9	12.5
C[C@H](CO)N1C[C@H](C)[C@@H](CN(C)Cc2ccc(Oc3ccccc3)cc2)OCc2cn(nn2)CCCC1=O	-0.9	-1.2	-0.2
C[C@@H]1CN([C@H](C)CO)C(=O)c2cc(NC(=O)Nc3ccccc3)ccc2O[C@@H]1CN(C)Cc1ccc(Cl)c(Cl)c1	-5.5	-7.9	2.0
C[C@H](O)C#Cc1ccc2c(c1)O[C@@H](CN(C)CC1CC1)[C@H](C)CN([C@H](C)CO)S2(=O)=O	-4.0	-17.3	-1.6
C[C@@H]1CN([C@@H](C)CO)C(=O)c2ccccc2-c2ccccc2CO[C@@H]1CN(C)Cc1ccc(F)cc1	-2.0	-25.7	-3.0
CC(=O)N1[C@@H]2CN(CC3CC3)C[C@H]1C2c1ccc(Br)cc1 (stereo partly specified)	-3.6	-4.3	-1.4
CO[C@@H]1CN(C)C(=O)c2ccc(NC(=O)C3CCC3)cc2OC[C@H](C)N(C(=O)CN(C)C)C[C@@H]1C	0.8	2.8	-2.1
CC(=O)N1[C@H](CO)[C@@H](c2ccc(-c3cccc(F)c3)cc2)[C@@H]1CNC(=O)C1CC1	-1.8	2.8	6.0
C[C@H]1CN([C@@H](C)CO)S(=O)(=O)c2ccc(C#CC3CC3)cc2O[C@@H]1CN(C)C(=O)C1CCCCC1	-12.4	-42.2	17.1
CC(C)NC(=O)Nc1ccc2c(c1)CC(=O)N([C@@H](C)CO)C[C@@H](C)[C@H](CN(C)S(C)(=O)=O)O2	0.6	1.6	-0.9
C[C@H](CO)N1C[C@H](C)[C@@H](CN(C)C(=O)C2CCCCC2)Oc2cc(-c3ccncc3)ccc2S1(=O)=O	-4.6	-5.3	0.1
COc1ccc2c3c(n(C)c2c1)[C@H](CO)N(C)CC31CCN(C(=O)C2CCC2)CC1	0.5	2.5	0.2
COc1ccc(S(=O)(=O)Nc2ccc3c(c2)C(=O)N([C@H](C)CO)C[C@H](C)[C@H](CN(C)C(=O)Nc2ccc4c(c2)OCO4)O3)cc1	-1.0	-6.1	-1.1
CCC(=O)Nc1ccc2c(c1)C(=O)N(C)C[C@@H](OC)[C@H](C)CN(C(=O)CN(C)C)[C@@H](C)CO2	2.5	4.6	-1.0
CO[C@H]1CN(C)C(=O)c2cc(NC(=O)c3cccc(F)c3)ccc2OC[C@@H](C)N(C(C)=O)C[C@@H]1C	0.0	-2.2	-1.2
C[C@H]1CN([C@@H](C)CO)C(=O)c2ccccc2-c2ccccc2CO[C@@H]1CN(C)C(=O)Nc1ccc(F)cc1	-4.4	-0.5	-5.4
COc1ccc(C[C@@H]2CCn3nncc3COC[C@H](CC(C)C)NC2=O)cc1	4.6	4.8	-1.5
C[C@H]1CN([C@@H](C)CO)C(=O)c2cc(NS(=O)(=O)c3cn(C)cn3)ccc2O[C@@H]1CN(C)S(=O)(=O)c1cn(C)cn1	5.0	10.0	-1.0
COCC(=O)N1CC2(CCN(Cc3cncnc3)CC2)c2c(n(C)c3cc(OC)ccc23)[C@@H]1CO	-4.0	2.6	-0.2
CCCN(C)C[C@H]1OCCCC[C@@H](C)Oc2ccc(NC(=O)Nc3ccc(F)cc3)cc2C(=O)N([C@@H](C)CO)C[C@H]1C	-3.9	-9.9	3.7
CCCN(C)C[C@@H]1OCCCC[C@@H](C)Oc2ccc(NS(=O)(=O)c3ccc(OC)cc3)cc2C(=O)N([C@@H](C)CO)C[C@@H]1C	5.9	11.3	2.2
O=C(Cc1cccnc1)N[C@H]1CC[C@@H](CCNS(=O)(=O)c2ccccc2Cl)O[C@@H]1CO	-0.2	11.0	1.0
C[C@H]1CN(C)C(=O)c2cc(N(C)C)ccc2O[C@@H]1CN(C)C	-0.4	4.0	-1.8
C[C@@H]1CN([C@H](C)CO)C(=O)CCCn2cc(nn2)CO[C@@H]1CN(C)S(=O)(=O)c1ccccc1	3.5	4.7	-1.8
